From PubChem BioAssay
RVFV N-RNA inh – blocks Rift Valley Fever Virus nucleoprotein binding to RNA. RVFV N-RNA binding, fluorescence polarization; hits give low values. % bound, % (test concentration not listed). 20,000 compounds, 0.1% hits. P21700;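 active = between 0 and 58% in either replicate with normal brightness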;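 also: 100 nL library stock added to about 12 µL; 100% = protein and probe without compound and 0% = probe alone; numbers are from one replicate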
Target sequence (P21700 whole entry, looked up): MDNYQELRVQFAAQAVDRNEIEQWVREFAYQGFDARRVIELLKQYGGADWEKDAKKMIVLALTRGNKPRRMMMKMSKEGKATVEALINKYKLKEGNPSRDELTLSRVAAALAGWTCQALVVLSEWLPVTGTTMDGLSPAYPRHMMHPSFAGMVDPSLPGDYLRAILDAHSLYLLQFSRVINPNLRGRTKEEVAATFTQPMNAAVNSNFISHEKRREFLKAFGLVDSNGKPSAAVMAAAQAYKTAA
Starred values were filed as active, the others as inactive; & = joins results of further samples.

compound | RVFV N-RNA inh
CCC(=O)Nc1cccc(NC(=O)c2cc(OC)cc(OC)c2)c1 | 87.0
CC(CCC(=O)NC1CCCCC1)C(=O)O (configuration not stated) | 93.8
CCN(CC)CC(=O)Nc1ccc(C)cc1Br | 96.9
CC1(C(=O)NCC(=O)c2cccs2)Cc2ccccc2C(=O)O1 (configuration not stated) | 94.5
Cn1c(=O)cc(N2CCCCC2)[nH]c1=O | 98.8
Nn1c(SCC(=O)N2CCCc3ccccc32)nnc1-c1ccccc1 | 94.9
CSC(=CC(=O)c1ccc(Cl)cc1)SC | 93.4
CC1(C)CCC=[N+]1[O-] | 97.2
COc1ccc(C(F)(F)F)cc1N | 96.4
COc1cc(NS(C)(=O)=O)ccc1Nc1c2ccccc2nc2ccccc12 | 94.3
NC(=O)c1c(Nc2nc3c(F)cccc3s2)sc2c1CCCC2 | 99.4
Cc1cccc(N2C(=O)CC(c3cn(C)c4ccccc34)C2=O)c1 (configuration not stated) | 101.4
C#CCN1C(=O)S/C(=C/c2cc(CC=C)c(O)c(OC)c2)C1=O | 100.3
CCN(CC)Cc1c(O)ccc2c1O/C(=C\c1ccc(C(=O)OC)cc1)C2=O | 58.5
Cc1occc1C(=O)N/N=C/c1ccc(F)c(Br)c1 | 92.1
CCC(NC(=O)Nc1ccccc1C(=O)O)(C(F)(F)F)C(F)(F)F | 101.3
O=C(NCCOc1cccc2cccnc12)C1CC1 | 93.0
CC(=O)Nc1nc2c(Cl)cccc2s1 | 98.7
COC(=O)c1cc(Cc2ccc(N)c(C(=O)OC)c2)ccc1N | 99.8
CCCNC(=O)c1cccc(COc2ccccc2OC)c1 | 91.7
Cn1/c(=N/N=C\c2ccccc2)sc2ccccc21 | 105.4
NC(=O)CSc1nccn1Cc1ccccc1 | 91.9
CC(C)(C)c1ccc(S(=O)(=O)NCc2ccc(C(=O)N3CCN(C(=O)c4ccco4)CC3)cc2)cc1 | 96.7
Nc1ccc(-c2nnc(-c3ccc(N)cc3)o2)cc1 | 88.0
CC1C/C(=N\O)c2ccccc21 (configuration not stated) | 105.5
CCN(CC)c1ccc(C=C2C(=O)N(C)C(=O)N(C)C2=O)o1 | 102.8
Oc1ccc(-c2ccccc2)cc1O | 86.0
Cc1nn(-c2ccccc2)c2[nH]c(C(F)(F)F)cc(=O)c12 | 98.4
CC(=O)N1CCc2cc(NC(=O)CSc3nnc4ccccn34)ccc21 | 94.3
CCOC(=O)c1c(C)noc1/C(C)=N/OC(=O)Nc1cccc(C(F)(F)F)c1 | 94.8
CC(C)c1cc(N=NC(N)=O)cc(C(C)C)c1O | 92.0
CC1=C(/C=C/C(C)=C/C=C/C(C)=C/C=C/C=C(C)/C=C/C=C(C)/C=C/C2=C(C)C(=O)CCC2(C)C)C(C)(C)CCC1=O | 100.7
O=CNCCCc1nc2ccccc2n1Cc1ccc(F)cc1 | 102.9
CCOC(=O)C1=C(C)NC2=C(C(=O)CC(c3ccco3)C2)C1c1cccs1 (configuration not stated) | 95.0
COc1ccc(COn2c(=O)c(C)[n+]([O-])c3ccccc32)cc1OC | 104.3
Cc1ccc(NC(=O)C(Cc2ccccc2)NC(=O)c2ccco2)cc1 (configuration not stated) | 94.1
O=c1c2[nH]cnc2n(-c2ccccc2)c(=O)n1Cc1ccccc1 | 109.9
CCn1c(Cc2ccccc2)nnc1SCc1cccc(C(=O)O)c1 | 89.9
COC(=O)c1sc(S(C)(=O)=O)c(C#N)c1-c1cccs1 | 99.8
CC12C=CC(CO)(O1)C1C(=O)N(c3ccc(Br)cc3)C(=O)C12 (configuration not stated) | 100.0
O=c1c(Cl)c(-n2cccn2)cnn1-c1ccc(Cl)cc1Cl | 91.5
CC(NC(=O)OCC1c2ccccc2-c2ccccc21)C(=O)O (configuration not stated) | 75.0
Cn1c(S(=O)(=O)Cc2ccc(Br)cc2)nc2ccccc21 | 89.9
Cc1nn(Cc2c(F)c(F)c(F)c(F)c2F)c(C)c1NC(=S)NCc1ccco1 | 93.0
Cn1c(=S)n(CN2CCC(C(N)=O)CC2)c2ccccc21 | 95.8
Nc1nc(SCc2ccc([N+](=O)[O-])cc2)c2ncn([C@@H]3O[C@H](CO)[C@H](O)C3O)c2n1 (some centres not stated) | 96.1
CCCn1cnc2c(cnn2-c2ccccc2C)c1=O | 106.6
COc1ccc(C2CC(=O)N(C)C3=C2C(=O)CC(C)(C)C3)c(OC)c1 (configuration not stated) | 82.8
COC(=O)c1sc(S(=O)(=O)N2CCCC2)c(C(=O)OC)c1C | 97.4
CCCN1CCC(NCc2cccc(C(F)(F)F)c2)CC1 | 101.8

An excerpt from above in order of molecular weight, lowest first:
compound | RVFV N-RNA inh
CC(C)c1cc(N=NC(N)=O)cc(C(C)C)c1O | 92.0
CCCn1cnc2c(cnn2-c2ccccc2C)c1=O | 106.6
Cc1ccc(NC(=O)C(Cc2ccccc2)NC(=O)c2ccco2)cc1 (configuration not stated) | 94.1
CC(=O)N1CCc2cc(NC(=O)CSc3nnc4ccccn34)ccc21 | 94.3
CCOC(=O)C1=C(C)NC2=C(C(=O)CC(c3ccco3)C2)C1c1cccs1 (configuration not stated) | 95.0
Nc1nc(SCc2ccc([N+](=O)[O-])cc2)c2ncn([C@@H]3O[C@H](CO)[C@H](O)C3O)c2n1 (some centres not stated) | 96.1

Later entries.
compound | RVFV N-RNA inh
CN(C)C(=O)Oc1ccc[n+](C)c1 | 98.3&97.9
COC(=O)C1(C(=O)OC)C(C)(C)C1(C(=O)OC)C(=O)OC | 92.3
CN(c1ccc(C(=O)N2CCN(c3ccc(F)cc3)CC2)cc1)S(C)(=O)=O | 100.6
Cc1ccc(C(CNS(=O)(=O)c2ccc(F)cc2C)N2CCN(C)CC2)cc1 (configuration not stated) | 91.2
CN(C)C(=O)CCc1cc(C(C)(C)C)c(O)c(C(C)(C)C)c1 | 91.0
C=CCOC(=O)COc1ccc2c(CC)cc(=O)oc2c1 | 82.1
CCCCN=Cc1c(O)n(Cc2ccccc2)c(=O)[nH]c1=O | 89.0
CC(=O)NC1C(Sc2ccccc2)OC(CO)C(O)C1O (configuration not stated) | 85.3
COc1ccccc1-c1noc(CCC(=O)Nc2cc(C(F)(F)F)ccc2Cl)n1 | 90.5
O=c1oc2ccccc2c(O)c1C=Nc1ccccc1 | 99.6
COc1cc(C(=O)Oc2cccc(C)c2C)cc(OC)c1OC | 101.0
O=C(CSc1cn(Cc2ccccc2)c2ccccc12)NCc1ccco1 | 94.9
Cc1ccc(OCC(O)Cn2cnc3ccccc32)cc1 (configuration not stated) | 109.4
NC(=O)C1(S(=O)(=O)c2ccccc2)CCCCC1 | 92.8
COc1ccc(C[C@H](N)C(=O)N[C@H]2[C@@H](O)[C@H](n3cnc4c(N(C)C)ncnc43)O[C@@H]2CO)cc1 | 97.1
CNC(=O)c1cc(S(=O)(=O)N2CCCC2)ccc1Cl | 105.8
Cc1cc(=O)c2ccccc2n1CC(N)=O | 99.5
CCn1c(=O)c2cc(S(N)(=O)=O)ccc2n(CC)c1=O | 96.5
Nc1ccc2c(C(F)(F)F)cc(C(F)(F)F)nc2n1 | 104.0
CC(C)NCC(O)c1ccc(O)c(O)c1 (configuration not stated) | 103.2&99.5&91.2
CC1CN(C)C(C)C/C1=N/O (configuration not stated) | 104.9
COc1ccc(NC(=O)c2cc(-c3ccc(C)o3)nc3ccccc23)cc1OC | 92.6
NC(N)=NC(N)=Nc1ccc2ccccc2c1 | 91.7
CC1=CCC2CC1C(c1ccc(N(C)C)cc1)OC2(C)C (configuration not stated) | 86.4
CCc1ccc(OCCCC(N)=O)cc1 | 92.5
OCC(O)/C=N/Nc1nc(Nc2ccccc2)nc(N2CCCCC2)n1 (configuration not stated) | 101.2
C=C(C)COc1c(Cl)cc(C#N)cc1OC | 99.3
COCCCNc1oc(-c2ccccc2Cl)nc1C#N | 94.5
O=c1[nH]cnc2ccc(Br)cc12 | 86.9
N#CSCCCOc1ccc2ccccc2c1 | 94.3
Cc1[nH]n(C)c(=O)c1N=Nc1c(Cl)cc(C(F)(F)F)cc1Cl | 94.2
COC(=O)c1cccc(NC(=O)c2ccccc2)c1 | 98.4
c1ccc(CCNc2nc3ccccc3[nH]2)cc1 | 92.1
O=C1N/C(=N/S(=O)(=O)c2ccccc2)S/C1=C/c1ccccc1O | 102.1
CC(C)(C)c1csc(NC(=O)C(CC(=O)O)NCc2ccco2)n1 (configuration not stated) | 98.5
C=CCN=Cc1c(NCC=C)nc2ccccn2c1=O | 87.8
CC1(C)CC2(CCO1)OC(=O)CC2C#N (configuration not stated) | 91.9
O=C(Nc1cccnc1)c1cccn(Cc2cccc(Cl)c2)c1=O | 105.2
COc1ccc(/C=C2\SC(=O)N(CC(N)=O)C2=O)cc1 | 107.4
CC(=O)Nc1ccc(S(=O)(=O)Nc2ccccc2C(=O)NC(C)(C)C)cc1 | 92.2
O=C(Nc1ccc2c(c1)OCO2)Nc1ccc(N2CCOCC2)c2nonc12 | 99.0
COc1cccc(C(=O)Nc2nc3cc4c(cc3s2)OCO4)c1 | 99.7
CC(c1ccccc1)n1c(=O)[nH]c2ccccc21 (configuration not stated) | 98.9
COCCNC(=O)c1cccc(OC(C)C)c1 | 90.1
S=C(c1ccc2c(c1)OCO2)N1CCCC1 | 93.1
CCN(CC)c1nc(SCC(=O)O)nc(N(CC)CC)n1 | 92.2
O=C(OCc1nc2ccccc2s1)c1ccccc1 | 93.3
O=C(N/N=C\c1cc(Cl)ccc1O)c1ccc(S(=O)(=O)N2CCCCC2)cc1 | 92.3
Cc1cc(C(=O)NCc2ccc(N3CCOCC3)cc2)nn1C | 98.1
Cn1c(=O)c2conc2n(C)c1=O | 96.0

Next part.
SMILES	RVFV N-RNA inh
O=C1CC(C(=O)Nc2ccc(Cl)c(Cl)c2)NC(=NCc2ccco2)N1 (configuration not stated)	96.7
Cn1c(=O)c2c(SCCN3CCOCC3)nc(-c3ccccc3Cl)nc2n(C)c1=O	96.3
CN1CCN(c2ccccc2C=C(C(=O)O)C(=O)O)CC1	94.9
C=CCNC(=O)c1ccccc1SC	96.8
COc1ccc(OC)c(NC(=O)C(CC(=O)O)Cc2ccc(C)cc2)c1 (configuration not stated)	91.7
Fc1cccc(F)c1-c1nnc(-c2ccccc2OC(F)(F)F)o1	89.4
N#C/C(=C\c1cccnc1)C(N)=S	95.7
N#Cc1ccsc1NC(=O)c1cc(Cl)sc1Cl	94.8
COc1cc(NC(=O)CSC)cc(OC)c1	94.6
N=C1c2ccccc2C(=O)C1c1ccccc1 (configuration not stated)	104.1

Next section; it opens with the 4 that closed the last part.
SMILES	RVFV N-RNA inh
N#C/C(=C\c1cccnc1)C(N)=S	95.7
N#Cc1ccsc1NC(=O)c1cc(Cl)sc1Cl	94.8
COc1cc(NC(=O)CSC)cc(OC)c1	94.6
N=C1c2ccccc2C(=O)C1c1ccccc1 (configuration not stated)	104.1
CCN1CCN(c2ccc(N3CCN(C(=O)c4ccc(C(F)(F)F)cc4)CC3)nn2)CC1	96.5
COc1ccc(Nc2oc(-c3ccccc3)nc2C#N)cc1	103.2
CN(Cc1ccccc1)C(=O)CN(C1CCCCC1)S(C)(=O)=O	107.1
CSc1ccccc1NS(=O)(=O)c1ccccc1	88.0
Cc1ccc2oc(-c3cccc(Br)c3)nc2c1	103.5
O=C(NCC1CC1)Nc1ccccc1F	96.0
COC(=O)CN(c1ccc(C(C)C)cc1)S(C)(=O)=O	88.2
CC(C)NC(=O)COc1ccc(S(=O)(=O)N(C)Cc2ccccc2)cc1	101.3
N/C(COc1cccc(C(F)(F)F)c1)=N\O	96.5
Cc1ccc(S(=O)(=O)NNC(=S)Nc2ccccc2)cc1	91.0
Clc1ccc(C(c2ccc(Cl)cc2)n2cc[n+](CC(OCc3ccc(Cl)cc3Cl)c3ccc(Cl)cc3Cl)c2)cc1 (configuration not stated)	88.7
CC[C@]1(O)CC2CN(CCc3c([nH]c4ccccc34)[C@@](C(=O)OC)(c3cc4c(cc3OC)N(C)[C@H]3[C@@](O)(C(N)=O)[C@H](O)[C@]5(CC)C=CCN6CC[C@]43[C@@H]65)C2)C1 (some centres not stated)	98.1
CC(C)(C)c1cc(C(C)(C)C)c(O)c(S(N)(=O)=O)c1	97.6
CC(=O)NC(=O)/C(C#N)=N\O	97.8
O=c1oc(-c2ccccc2)nc2ccc(O)cc12	100.6
Nc1ncnc2cccc(F)c12	93.7
O=C(Cc1ccc(Cl)cc1)Nc1cccc(-c2ccc(N3CCOCC3)nn2)c1	93.5
Oc1ccccc1/C=N/c1nc2ccccc2[nH]1	95.8
N#Cc1cnn(-c2ncnc3c2cnn3-c2ccccc2)c1N	94.8
CCOc1ccc(NC(=O)CCn2c(=O)sc3ccccc32)cc1	86.3
NC(N)=N/N=C/c1cccs1	93.0
CCNC(=S)N1CCn2cccc2C1c1ccc(C)cc1 (configuration not stated)	100.8
COc1ccc(OCC(=O)Nc2cc(OC)ccc2NC(=O)c2ccco2)cc1	96.5
CCC(=O)NC(C)C12CC3CC(CC(C3)C1)C2 (configuration not stated)	91.6
Cn1c(=O)c2c(ncn2CC(O)CN2CCN(c3ncccn3)CC2)n(C)c1=O (configuration not stated)	85.2
CC(C)(C)NC(=O)NCc1n[nH]c(=O)c2ccccc12	96.4
C=CCN1CC[C@]23c4c5ccc(O)c4O[C@H]2/C(=N/N=C2\CC[C@@]4(O)[C@H]6Cc7ccc(O)c8c7[C@@]4(CCN6CC=C)[C@H]2O8)CC[C@@]3(O)[C@H]1C5	97.2
O=c1[nH]c(=S)[nH]c(O)c1N=Nc1ccc(O)cc1	100.6
CC1=CC(=C2C(=O)NC(=O)NC2=O)C=C(C)N1CCN1CCOCC1	101.5
OC(CNC1CCCC1)COc1ccc(OCC(O)CNC2CCCC2)cc1 (configuration not stated)	92.0
O=C1NC(=S)NC(=O)C1=Cc1cccc(O)c1Cl	96.7
CC1(C)CCC2=C(O1)c1ccccc1C(=O)C2=O	98.3
CC1CN(C(=O)/C=C/c2ccco2)C(C)CN1C(=O)/C=C/c1ccco1 (configuration not stated)	98.2
CCN1C(=O)c2ccc(C(=O)NCC(C)C)cc2C1=O	96.0

A portion of the library; count on the stated rates, not on these rows.
